miR-21 FLuc: raises the signal of a miR-21 reporter. HeLa miR-21 FLuc reporter, luciferase, 48 h. 340,000 tested, under 10 active. Potency, µM (highest dose often 38.3 µM), without a hit: at the highest dose reporter change, positive = more light; active = well fitted rising curve with a large enough effect; inconclusive = small, poorly fitted or top-dose-only effect; inactive = no such curve, though single readings can be large or run the other way;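 note: % of control where 0% means no effect; miR-21 action dims this reporter so a rising signal means less miR-21 action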
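Luminescence from a firefly luciferase reporter carrying a miR-21 binding site downstream, stably expressed under a CMV promoter in HeLa cells that make miR-21 endogenously, reports miRNA modulation after 48 h compound exposure up to approximately 40uM final.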
Rango complex inh: Rango-importin beta binding inhibition. 0.031% of 340,000 active. Q14974. Rango CFP/YFP FRET sensor + importin beta, 45 min. Potency, µM (top dose mostly 92.2 µM), for the others: top-dose inhibition of complex formation. AID 540263; active = rising FRET ratio curve, often small or poorly fitted; inconclusive = mostly compound fluorescence or quenching in the first reads; inactive = flat curves in all reads;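 note: potency is the fitted concentration of half-maximal effect; 0% = DMSO wells and 100% = buffer wells lacking importin beta; nearly all actives have a fitted effect of over 15% in size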
Target sequence (Q14974 whole entry, looked up): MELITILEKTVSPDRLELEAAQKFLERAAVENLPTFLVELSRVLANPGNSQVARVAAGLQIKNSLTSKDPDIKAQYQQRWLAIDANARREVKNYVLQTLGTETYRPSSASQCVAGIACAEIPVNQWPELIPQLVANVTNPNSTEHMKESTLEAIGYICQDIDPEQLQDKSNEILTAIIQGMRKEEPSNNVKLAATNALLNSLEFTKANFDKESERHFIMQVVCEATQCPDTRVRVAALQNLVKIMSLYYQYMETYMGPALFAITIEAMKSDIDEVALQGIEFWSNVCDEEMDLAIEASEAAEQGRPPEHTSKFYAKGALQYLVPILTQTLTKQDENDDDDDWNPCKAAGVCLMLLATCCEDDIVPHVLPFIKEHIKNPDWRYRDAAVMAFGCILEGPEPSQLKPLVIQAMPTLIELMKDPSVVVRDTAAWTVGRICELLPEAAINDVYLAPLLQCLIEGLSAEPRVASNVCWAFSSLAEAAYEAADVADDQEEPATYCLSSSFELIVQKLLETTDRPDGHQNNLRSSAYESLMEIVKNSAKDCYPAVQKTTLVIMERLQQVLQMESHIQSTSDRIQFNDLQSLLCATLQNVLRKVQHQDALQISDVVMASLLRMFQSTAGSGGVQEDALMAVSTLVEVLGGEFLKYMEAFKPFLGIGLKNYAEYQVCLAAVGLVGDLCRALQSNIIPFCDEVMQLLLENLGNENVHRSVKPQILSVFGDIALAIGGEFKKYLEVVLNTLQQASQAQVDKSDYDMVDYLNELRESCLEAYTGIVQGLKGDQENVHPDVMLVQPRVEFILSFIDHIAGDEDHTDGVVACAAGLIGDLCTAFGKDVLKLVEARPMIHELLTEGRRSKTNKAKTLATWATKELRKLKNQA
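Inhibition scored from the CFP 486 nm/YFP 530 nm FRET ratio 45 min after adding 0.125 microM importin beta to 50 nM Rango biosensor preincubated 5 min with compound (room temperature, PBS with DTT, Tween-20, BSA). No-importin wells as positive control.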
GLA inh pH 4.5: alpha-galactosidase A (human) inhibition, pH 4.5; purified enzyme, 4-MU-alpha-Gal fluorescence, pH 4.5; activity change, negative = inhibition, % at 105 µM; 230,000 tested, under 10 active; AID 1467; inconclusive = small, poorly fitted or top-dose-only inhibition, or a rising curve; inactive = flat fitted curve, though single readings scatter; no compound was filed as active;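 note: 0% = full activity with enzyme and -100% = basal without enzyme; dose as in the result columns while the protocol names 77 µM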
Rango dissoc inh: inhibition of RanGTP-driven Rango-importin beta dissociation; O95149+P62826; Biochemical FRET Rango-importin beta, RanGTP-induced dissociation; Potency, µM (highest dose often 46.1 µM), for inactives: top-dose activity change, negative = inhibition; 0.071% of 340,000 active; AID 540253; active means falling FRET ratio curve, often poorly fitted, with flat reads before Ran was added; inconclusive means other falling curves, or compound fluorescence or quenching; inactive means flat or rising ratio curve;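 note: potency is the fitted concentration of half-maximal effect; % of control where 0% means no effect; nearly all actives have a fitted effect of over 45% in size; -100% = wells without RanGTP and RCC1; the record marks most hits as doubtful in a second field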
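Two FRET readings bracket the reaction: one 5 min after compound meets Rango–importin beta, another 45 min after RanGTP-RCC1 (0.6 uM Ran, 0.2 uM RCC1, 2 mM GTP) is added. Only the second defines inhibition.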
* = called active by the depositor; ? = inconclusive; / = not tested or not shown; & = joins results of further samples.

mol | miR-21 FLuc | Rango complex inh | GLA inh pH 4.5 | Rango dissoc inh
COCc1cc(=O)[nH]c(-c2ccccc2OC(F)(F)F)n1 | 1% | -3.9% | 0 | 2%
O=C(NCC1CCCO1)c1cccs1 (stereo not drawn) | -1% | -0.3% | 5 | 4%
CCCn1c(O)c(N=NC(=O)c2cccnc2)c2cc(Br)ccc21 | 6% | -1.8% | 9 | -4%
Cc1ccc(OCC(=O)Nc2ccc(N3CCN(S(C)(=O)=O)CC3)cc2)cc1 | -4% | 2.4% | 1 | -11%
CCc1ccc(N(CC(=O)NC2CCCC2)C(=O)CCC(=O)Nc2ccccn2)cc1 | -1% | -3.7% | / | -5%
CCOc1cc(C(=O)N/N=C/c2ccsc2)cc(OCC)c1OCC | 13% | -3.9% | -2 | 11%
COc1ccc(C2=NNC(=O)C2(C)Br)cc1 (stereo not drawn) | / | -2.8% | / | 31%
CC(C)NC(=O)CCNC(=O)c1ccc(F)cc1 | 1% | 0.6% | -4 | 0%
O=S(=O)(ON(c1ccccc1)S(=O)(=O)c1ccccc1)c1ccccc1 | 0% | -4.8% | 0 | -13%
CN(C(=O)c1cccc(NC(=O)Cc2cccc(NC(=O)C3CCN(C(=O)C4CCCCC4)CC3)c2)c1)C1CC1 | / | -2.5% | / | 0%
O=C(NCC1CCCCC1)c1ccc(=O)[nH]c1 | 1% | 0.3% | / | 2%
Cc1ccsc1C1CC(=O)OC2=C1C(=O)CC(C)(C)C2 (stereo not drawn) | 4% | / | -1 | /
CC(C)CC(=O)NC(=S)Nc1ccc(NC(=O)c2cccs2)cc1 | -3% | -1.2% | -3 | 2%
Cc1c(C(=O)N2CCCC2)oc2c1-c1nn(CC(=O)NCCCN3CCCCC3C)cc1CC2 (stereo not drawn) | 0% | -2.8% | / | -2%
CC(=O)Nc1ccc(N2C(=O)CC(N3CCSCC3)C2=O)cc1 (stereo not drawn) | -2% | 1.4% | 5 | 28%
Cc1ccnc(NC(=O)c2ccc(Cl)c(S(=O)(=O)N3CCCCC3)c2)c1 | / | 5.2% | / | 0%
COc1ccc(Nc2nc(N)nc(CN3CCN(c4ccccn4)CC3)n2)cc1 | -21% | 0.9% | 4 | 3%
Cc1csc(NC(=O)CSc2nnc(NC(=O)C3CC(=O)N(c4ccccc4)C3)s2)n1 (stereo not drawn) | 0% | -1.5% | -2 | 16%
CCN(CC)C(=O)Cn1cc(S(=O)(=O)CC(=O)Nc2cc(OC)ccc2OC)c2ccccc21 | -8% | -9.7% | / | 3%
O=C(Nc1cccc(S(=O)(=O)N2CCCC2)c1)c1cccc(S(=O)(=O)N2CCOCC2)c1 | / | -5.7% | / | -4%

3 entries from above, set out differently.
mol: Cc1c(C(=O)N2CCCC2)oc2c1-c1nn(CC(=O)NCCCN3CCCCC3C)cc1CC2 (stereo not drawn)
  miR-21 FLuc = 0% | Rango complex inh = -2.8% | GLA inh pH 4.5 = / | Rango dissoc inh = -2%
mol: CC(=O)Nc1ccc(N2C(=O)CC(N3CCSCC3)C2=O)cc1 (stereo not drawn)
  miR-21 FLuc = -2% | Rango complex inh = 1.4% | GLA inh pH 4.5 = 5 | Rango dissoc inh = 28%
mol: Cc1ccnc(NC(=O)c2ccc(Cl)c(S(=O)(=O)N3CCCCC3)c2)c1
  miR-21 FLuc = / | Rango complex inh = 5.2% | GLA inh pH 4.5 = / | Rango dissoc inh = 0%

Molecules listed so far with an NH in an aromatic ring:
mol | miR-21 FLuc | Rango complex inh | GLA inh pH 4.5 | Rango dissoc inh
COCc1cc(=O)[nH]c(-c2ccccc2OC(F)(F)F)n1 | 1% | -3.9% | 0 | 2%
O=C(NCC1CCCCC1)c1ccc(=O)[nH]c1 | 1% | 0.3% | / | 2%

Going on with the list:
mol | miR-21 FLuc | Rango complex inh | GLA inh pH 4.5 | Rango dissoc inh
O=C(Nc1ccc(N2CCOCC2)cc1)c1ccc([N+](=O)[O-])cc1 | -29% | 0.2% | -5 | 25%
Cc1cc(OCC(=O)NC2CC2)c2c(C)cc(=O)oc2c1 | 11% | 3.3% | / | 2%
O=C(CCc1ccccc1)NNC(=S)Nc1ccc(F)cc1 | -1% | -3.1% | 3 | -11%
CN(C)CCn1c2c(c(SCC(=O)Nc3ccccc3)nc1=O)CCCC2 | / | -0.3% | / | -8%
CC(=O)C1=C(O)C(=O)N(Cc2cccnc2)C1c1ccccc1 (stereo not drawn) | -1% | 0.7% | -2 | -3%
Cc1cc(C)c2c(=O)n(CC(=O)Nc3ccc(Cl)cc3)sc2n1 | 19% | ? | -15 | -19%
Nc1nc2ccc(N3CCOCC3)cc2s1 | -3% | 2.9% | 4 | 21%
COc1cccc(OC)c1NC(=O)CN1CCN(C)CC1 | -3% | -2.9% | / | 2%
Cc1ccc(SCC(=O)NCCSC(C)(C)C)cc1 | -44% | -3.4% | -2 | 4%
O=C(COC(=O)c1c(F)cccc1Cl)NC(=O)Nc1ccc2c(c1)OCCO2 | / | 0.2% | / | -16%
COc1ccc(OC)c(-c2cc(C(=O)NCc3ccco3)no2)c1 | -40% | -3.9% | 4 | -12%
O=C(NC1CCCCCCC1)c1c(O)c2ccccc2[nH]c1=O | -19% | 1.9% | 4 | 2%
Nc1cc(=O)[nH]c(SCC(=O)Nc2cc(S(=O)(=O)N3CCOCC3)ccc2Cl)n1 | 0% | -1.7% | -3 | 19%
O=C(CNC1CCCCC1)Nc1cc(S(=O)(=O)N2CCOCC2)ccc1Cl | -2% | 2.7% | -19 | 0%
Cc1ccc(NC(=O)N2CCOCC2)c(C)c1 | 2% | 3.1% | 5 | -5%
N#Cc1ccc(S(=O)(=O)N2CCc3[nH]c4ccc(F)cc4c3C2)cc1 | -3% | -0.8% | -7 | 2%
CC(=O)Nc1ccc(SC(Sc2ccc(NC(C)=O)cc2)c2ccccc2)cc1 | / | -0.3% | / | -8%
COc1ccccc1N1CCN(C(=O)CCc2nnc3ccc(N4CCC(C)CC4)nn23)CC1 | 13% | 1.3% | / | 9%
CC(C)C(=O)Nc1ccc(NC(=S)NC(=O)c2cc3ccccc3o2)cc1 | -3% | 1.6% | 3 | 1%
CC(C)(C)S(=O)(=O)c1cnc(-c2ccc(Cl)cc2)nc1N | -37% | -3.7% | -1 | 6%
Cc1cc(/C=N/n2c(COc3ccccc3C)nc3ccccc3c2=O)c(O)c([N+](=O)[O-])c1 | -17% | -0.5% | 5 | 7%
CCc1ccccc1-n1c(SCC(=O)N2CCCC2)nc2[nH]ncc2c1=O | -6% | -0.3% | 10 | -11%
COc1ccc2sc(-c3ccc(N(C)C)cc3)c(C#Cc3cncn3C)c2c1 | / | ? | / | ?
CC(C)(C)C(=O)CN1C2=NCCCN2c2ccccc21 | -1% | -1.8% | / | 0%
CCOC(=O)CSC(C)C(=O)Nc1nnc(C(C)C)s1 (stereo not drawn) | -3% | 1.8% | -8 | -3%
O=C1C2CCCN2C(=O)N1CCCCN1CCN(CCO)CC1 (stereo not drawn) | 10% | 3.6% | 6 | -3%
COc1ccccc1CNC(=O)CSc1nn2c(=O)c(C(C)(C)C)nnc2s1 | 4% | 0.2% | 9 | 5%
O=c1c2cn[nH]c2[nH]c(=S)n1-c1ccccc1F | -62% | -1.2% | / | 6%
COc1ccc(NC(=S)N(Cc2ccc(N(C)C)cc2)Cc2ccco2)cc1 | -16% | 5.1% | -11 | 2%
Cc1cccc(Cn2ncc(Cl)c(Cl)c2=O)c1 | ? | 0.9% | -5 | 0%
Cc1noc(C)c1COC(=O)c1ccccc1NC(=O)c1ccco1 | -5% | -1.4% | -3 | -2%
CCN(CC)c1ccc(C=Nc2ccc(C)cc2C)c(O)c1 | -5% | ? | -11 | -12%
COc1ccc(S(=O)(=O)NN(C)c2ncc(C(F)(F)F)cc2Cl)cc1 | -2% | -2.9% | 6 | 12%
Cc1cc(NC(=O)CN2C(=O)NC(Cc3ccccc3)C2=O)no1 (stereo not drawn) | 1% | -0.7% | 12 | -12%
COc1ccc(C(=O)NNS(=O)(=O)c2ccc(C)cc2)cc1 | -5% | 3.9% | 4 | 11%
CCOc1ccc(NC(=O)CN(C)C(=O)c2cc3c(s2)CCC(C)C3)cc1OCC (stereo not drawn) | / | -0.1% | / | -8%
COc1ccc(NC(=O)CC2SC(=NCc3ccccc3OC)NC2=O)cc1 (stereo not drawn) | -11% | 0.1% | -5 | 6%
COc1ccc(C)cc1NC(=O)CNCc1cccs1 | -5% | -0.8% | / | 0%
CCCCNC(=S)NNC(=O)c1sccc1C | -4% | 0.3% | -22 | -9%
O=C(C[n+]1ccccc1)N/N=C/c1ccccc1C(F)(F)F | 0% | 4.3% | / | 5%
CCc1ccccc1NC(=O)C1COc2ccccc2O1 (stereo not drawn) | -8% | 2.1% | / | 0%
CCC(=O)c1cc(F)c(N2CCN(S(=O)(=O)c3ccc(C)cc3)CC2)cc1C | 11% | -1.1% | -5 | -8%
COC(=O)c1ccc(C)c(NC(=O)CCc2ccc(OC)cc2)c1 | 0% | 3.5% | -1 | 7%
CCN(CC)c1ncnc2c1nnn2C | / | -4.9% | / | 0%
CC(C)OP(=O)(c1ccc(N(C)C)cc1)C(O)c1ccc(N(C)C)cc1 (stereo not drawn) | 7% | 0.1% | / | -8%
COc1cccc(-c2nc(CS(=O)(=O)CC(=O)NCCc3cc(OC)ccc3OC)c(C)o2)c1 | 2% | 2.7% | / | ?
O=C(Nc1cccc(F)c1)C1CCCN(S(=O)(=O)c2cccc3cccnc23)C1 (stereo not drawn) | 17%&25% | -0.4% | / | 26%
CCn1c(=O)cc(OCC(=O)N(C)C2CCCCC2)c2ccccc21 | 5% | 0.1% | -1 | -4%
CC(=O)c1c(N2CCCCC2)nc(=S)n(-c2ccccc2)c1C | -14% | -2.7% | -7 | ?
O=C(CC12CC3CC(C1)CC(CC(=O)N1CCCC1)(C3)C2)N1CCCC1 | 4% | -3.7% | 1 | 0%
CC1(C)CC(=O)/C(=C(\O)CCCN2C(=O)c3ccccc3C2=O)C(=NCCO)C1 | -1% | ? | 2 | 8%
Oc1ccc2cc(Br)ccc2c1CN1CCCC1 | -2% | 0.0% | 3 | 14%
Cc1cc(NC(=S)Nc2cccc3ccccc23)n[nH]1 | -30% | -4.5% | 0 | ?
CC(C)(Oc1ccc(Cl)cc1)C(=O)OCn1nnc2ccccc2c1=O | -6% | -0.5% | -4 | 7%
Cc1sc2ncn(CC(=O)NCCCC(=O)N3CCC(C)CC3)c(=O)c2c1C | 5% | ? | / | -6%
CCNC(=O)C1=C(O)c2sccc2N(C)S1(=O)=O | -1% | -1.3% | -2 | 4%
COc1ccc(Nc2ncnc3sc(-c4ccccc4)cc23)cc1OC | -13% | 2.2% | -9 | -1%
Cc1cccc2sc(NNC(=O)c3cc(=O)c4ccccc4o3)nc12 | -24% | 3.0% | 2 | -27%
COc1ccccc1C1=CC(=O)C[C@H](c2ccc(F)cc2)C1 | / | 5.8% | / | 3%
Cc1ccccc1NC(=S)N(Cc1ccco1)C(C)c1cccs1 (stereo not drawn) | -1% | -2.6% | 4 | 1%

Other results:
mol | miR-21 FLuc | Rango complex inh | GLA inh pH 4.5 | Rango dissoc inh
COc1ccc(CNC(=O)CC2(CC(=O)O)CCCCC2)cc1 | -2% | 0.6% | / | 5%
Cc1cc(NC(=O)Cn2nc([N+](=O)[O-])c(Br)c2C)no1 | 0% | -2.0% | ? | 0%
CSc1nnc2n(-c3ccc(C)cc3)c(=O)c3c4c(sc3n12)COC(C(C)C)C4 (stereo not drawn) | -1% | 5.6% | 3 | 10%
CCCCOc1ccc(C(=O)N/C(=C\c2cccc([N+](=O)[O-])c2)C(=O)OC(C)C)cc1 | -3% | 0.5% | -1 | 9%
O=C(Nc1ccc(NC(=O)c2ccccc2F)cc1)c1cccs1 | / | 2.3% | / | 0%
CCCCN1C(=N)N([C@@H](CCC)CN2CCC[C@H]2CN2C(N)=NC[C@H]2C(C)C)C[C@H]1[C@H](C)CC | / | -1.8% | / | -4%
Cc1cc(C)c(NS(=O)(=O)c2ccc(NC(=O)/C=C/C(=O)O)cc2)c(C)c1 | 2% | / | 3 | /
COc1ccc(CCNC(=O)C2(c3ccccc3)CC2)cc1 | -3% | -1.3% | / | 0%

Source: PubChem BioAssay

An excerpt; the hit share may differ from the screen's.
